High-throughput results as filed in PubChem.
MgcRacGAP Rac1: inhibition of MgcRacGAP-stimulated Rac1 GTP hydrolysis – biochemical, inorganic phosphate detection, orthogonal assay, confirmation (AID 652142); inhibition, %; 2,400 tested, under 10 active; MgcRacGAP/Rac1F28L GTP hydrolysis, Biomol green phosphate; active compounds read high; test concentration not given here; none was called active though about 1 in 100 pass the limit;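 active = inhibition over three standard deviations or about 65%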;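 also: full inhibition control lacks the GAP enzyme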
* hit, by the source's call. Only part of the results is shown; rates above refer to the full screens.

How did O=C1NC(=O)N(CCC2=CCCCC2)C(=O)/C1=C/c1ccc(O)cc1 do in these assays?
MgcRacGAP Rac1: 38

What do the screens show for `CN(c1ccc(O)cc1)c1ccc([N+](=O)[O-])c2nonc12`?
MgcRacGAP Rac1: 21

How did Cc1cc(/C=C2\C(=O)NC(=O)N(c3cccc(F)c3)C2=O)c(C)n1-c1cc(C(=O)O)cc(C(=O)O)c1 do in these assays?
MgcRacGAP Rac1: 31

Results for O=C(O)CCn1cc(C=C2C(=O)NC(=S)NC2=O)c(-c2cccc(Br)c2)n1 ?
MgcRacGAP Rac1: 44

What do the screens show for `COc1cc(N2CCOCC2)ccc1/C=C1\C(=O)NC(=O)N(Cc2cccs2)C1=O`?
MgcRacGAP Rac1: 16

Results for COc1ccc(CN2CCN(Cc3ccccc3OC)CC2)cc1 ?
MgcRacGAP Rac1: 20

Results for CNC(=O)Oc1ccc(-c2cn3cc(C)ccc3n2)cc1 ?
MgcRacGAP Rac1: 15

Results for COc1ccccc1CNCCc1cccc(Cl)c1 ?
MgcRacGAP Rac1: 21

How did O=P(Oc1ccc(-c2ccccc2)cc1)(N1CC1)N1CC1 do in these assays?
MgcRacGAP Rac1: 16

How did O=C(O)c1ccccc1-c1ccc(C=C2C(=O)N(c3ccccc3)C(=S)N(c3ccccc3)C2=O)o1 do in these assays?
MgcRacGAP Rac1: 36

How did C=CCN1C(=O)NC(=O)/C(=C/C=C/c2ccccc2)C1=O do in these assays?
MgcRacGAP Rac1: 19

How did O=C(O)Cn1cc(/C=C2\C(=O)NC(=O)N(c3ccc(Cl)cc3)C2=O)c2ccccc21 do in these assays?
MgcRacGAP Rac1: 28

Six successive records out of the list so far, quoted:
Results for CNC(=O)Oc1ccc(-c2cn3cc(C)ccc3n2)cc1 ?
MgcRacGAP Rac1: 15

Results for COc1ccccc1CNCCc1cccc(Cl)c1 ?
MgcRacGAP Rac1: 21

How did O=P(Oc1ccc(-c2ccccc2)cc1)(N1CC1)N1CC1 do in these assays?
MgcRacGAP Rac1: 16

How did O=C(O)c1ccccc1-c1ccc(C=C2C(=O)N(c3ccccc3)C(=S)N(c3ccccc3)C2=O)o1 do in these assays?
MgcRacGAP Rac1: 36

How did C=CCN1C(=O)NC(=O)/C(=C/C=C/c2ccccc2)C1=O do in these assays?
MgcRacGAP Rac1: 19

How did O=C(O)Cn1cc(/C=C2\C(=O)NC(=O)N(c3ccc(Cl)cc3)C2=O)c2ccccc21 do in these assays?
MgcRacGAP Rac1: 28

Going on with the list.
What do the screens show for `O=C1NC(=O)C(=Cc2c(Cl)cccc2Cl)C(=O)N1`?
MgcRacGAP Rac1: 12

What do the screens show for `CN1CCN(c2ccc(N)c(N3CCN(C)CC3)c2)CC1`?
MgcRacGAP Rac1: 39

Results for Fc1ccc(CNCCc2ccccc2)cc1 ?
MgcRacGAP Rac1: 8

How did Cc1ccc(OCC(=O)N2CCN(Cc3ccc([N+](=O)[O-])cc3)CC2)cc1 do in these assays?
MgcRacGAP Rac1: 13

How did CC1=CC(=O)NP(=O)(Oc2ccc3ccccc3c2)N1 (stereo unspecified) do in these assays?
MgcRacGAP Rac1: 6

Results for COc1cc(/C=C2/C(=O)NC(=O)N(c3ccccc3)C2=O)ccc1O ?
MgcRacGAP Rac1: 21

How did Cc1cccc(N2C(=O)/C(=C/c3ccc(CN(CCC#N)S(C)(=O)=O)o3)C(=O)NC2=S)c1 do in these assays?
MgcRacGAP Rac1: 39

What do the screens show for `O=C1NC(=O)N(c2ccccc2)C(=O)/C1=C/c1coc2ccc(O)cc2c1=O`?
MgcRacGAP Rac1: 25

What do the screens show for `N/C(=N\N=C/c1ccc(-c2ccc(O)c(C(=O)O)c2)o1)N[N+](=O)[O-]`?
MgcRacGAP Rac1: 32

3 records picked at random from those above:
How did Cc1ccc(OCC(=O)N2CCN(Cc3ccc([N+](=O)[O-])cc3)CC2)cc1 do in these assays?
MgcRacGAP Rac1: 13

Results for COc1cc(/C=C2/C(=O)NC(=O)N(c3ccccc3)C2=O)ccc1O ?
MgcRacGAP Rac1: 21

What do the screens show for `O=C1NC(=O)N(c2ccccc2)C(=O)/C1=C/c1coc2ccc(O)cc2c1=O`?
MgcRacGAP Rac1: 25
